Rce1 inh – yeast Rce1p protease inhibitors, primary screen, biochemical, fluorescence, cell-free homogeneous; CAAX prenyl protease 2 (Saccharomyces cerevisiae (strain ATCC 204508 / S288c)), Q03530; yeast membranes, quenched prenylated peptide cleavage fluorescence; calls only; actives 0.27% (n = 290,000);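 active = fall in fluorescence gain of 50% or more versus controls, with final raw signal at or below 3038400; inconclusive = same 50% fall but final raw signal above 3038400; inactive = fall in fluorescence gain under 50%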;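 note: plate controls were neutral control wells for no effect and wells lacking membranes for full effect; tested at 10 µM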
Env fusion inh – inhibitors of HIV-1 Env-driven cell-cell fusion, primary screen, HeLa-JRFL effector, CEM21 target cells, luciferase; actives 1.1% (n = 360,000); AID 651610, 2012; inhibition, % at 12.3 µM;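 active = mean replicate inhibition score of at least 50 and every replicate individually at or above 50; inconclusive = only one of the two criteria met; inactive = mean below 50 and not all replicates reaching 50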;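 note: 0% = plate neutral controls and 100% = maraviroc near 300 nM; one replicate is shown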
PABP FP inh – PABP poly(A) RNA binding inhibitors, primary screen, biochemical, fluorescence polarization, uHTS | Polyadenylate-binding protein 1 (Homo sapiens), P11940 | inhibition, % at 35 µM | actives 1% (n = 290,000) | AID 2014, 2009;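 active = 50% or more with normal probe brightness, or confirmed in later tests; inconclusive = above 50% with abnormal brightness, or retests that disagree; inactive = below 50% or failed in later tests; about a fifth of its hits are not listed in these tables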;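 note: calls also rest on retests at 20 µM and on dose response follow-up; controls were probe without protein and protein plus probe with vehicle; some compounds called inactive have numbers as strong as hits; many hits fall short of the cut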
Target sequence (P11940 whole entry, looked up): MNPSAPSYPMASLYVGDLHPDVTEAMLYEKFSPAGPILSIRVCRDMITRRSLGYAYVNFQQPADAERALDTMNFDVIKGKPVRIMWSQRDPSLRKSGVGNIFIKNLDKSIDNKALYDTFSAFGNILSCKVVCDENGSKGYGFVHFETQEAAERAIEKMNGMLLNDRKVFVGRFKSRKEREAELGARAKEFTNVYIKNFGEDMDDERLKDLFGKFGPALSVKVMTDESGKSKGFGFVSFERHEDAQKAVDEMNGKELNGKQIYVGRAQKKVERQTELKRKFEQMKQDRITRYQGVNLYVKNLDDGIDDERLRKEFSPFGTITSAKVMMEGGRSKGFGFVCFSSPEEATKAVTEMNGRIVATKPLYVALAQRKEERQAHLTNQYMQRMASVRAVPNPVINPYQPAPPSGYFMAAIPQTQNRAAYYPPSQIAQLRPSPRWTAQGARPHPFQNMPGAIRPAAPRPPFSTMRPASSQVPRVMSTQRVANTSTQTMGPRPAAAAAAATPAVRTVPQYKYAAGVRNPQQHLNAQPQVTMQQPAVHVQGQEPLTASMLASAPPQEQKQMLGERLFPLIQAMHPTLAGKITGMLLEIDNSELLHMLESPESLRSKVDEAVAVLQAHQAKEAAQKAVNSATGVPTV
MT1-MMP act inh – blockers of MT1-MMP proenzyme processing, primary screen, HT1080 RFP-PRO-GFP cells, GFP/RFP fluorescence. Matrix metalloproteinase-14 (Homo sapiens), P50281. GFP/RFP ratio fluorescence, overnight; percent of plate control window, DMSO zero. GFP/RFP ratio change, % at 20 µM. actives 0.061% (n = 360,000). AID 651647, 2012;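 active = GFP/RFP ratio change of at least 30% with cell ATP level not reduced by more than half and red fluorescence within 50% of control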; note: strong numbers were not always called active
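Read-out: GFP/RFP fluorescence ratio; Test system: RFP-PRO-GFP reporter HT1080 cells; Compound dosing: single-point 20 µM compound, 1% DMSO; Times: overnight compound exposure at 37 °C.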
Yeast UUG start – modulators of yeast start codon fidelity, primary screen, whole organism, S. cerevisiae, single point, plate reader. actives 0.13% (n = 350,000). activity score, % at 18.7 µM. S. cerevisiae UUG-firefly luciferase reporter, luminescence/redox ratio;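 active = replicate mean at a twofold rise or more, about +100% in these data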;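 note: firefly luciferase made from a UUG start codon reports start codon fidelity; reporter light over untreated wells divided by growth signal over untreated wells; some hits fall short of that in this replicate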
CSC inhib – cancer stem cell viability inhibitors, primary screen, luminescence; cancer stem cell-like cells viability; inhibition, % at 7.5 µM; actives 1.1% (n = 300,000); AID 2717, 2010;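 active = mean at 75% or more and at least half the replicates too; inconclusive = mean and replicates disagree; tested in HMLE shEcad cells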;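 note: 0% = median of negative and 100% = median of positive control wells; the first replicate is given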
eIF4H inh – human eIF4H binding inhibitors, primary screen, translation initiation inhibitor project, biochemical, uHTS, fluorescence polarization; AID 2012, 2009; actives 0.94% (n = 290,000); Eukaryotic translation initiation factor 4H (Homo sapiens), Q15056; eIF4H fluorescence polarization binding assay; inhibition, % at 35 µM;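 active = 50% or more with normal probe brightness, or confirmed in later tests; inconclusive = above 50% with abnormal brightness, or retests that disagree; inactive = below 50% or failed in later tests; about a fifth of its hits are not listed in these tables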;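 note: calls also rest on retests at 20 µM and on dose response follow-up; 0% = protein and probe with vehicle and 100% = probe without protein; strong numbers were not always called active; many hits fall short of the cut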
MT1-MMP act inh RFP – second read-out of MT1-MMP act inh, no call of its own (marks repeat the call); RFP signal change, %; measured here: RFP expression control read;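 0 = vehicle wells; hits needed this value within 50% of zero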
* marks the source's active call; other numbers are inactive results; i = inactive; ? = inconclusive; · = no result given. This is a subset (hit frequency here may not be typical).

1: CNC(=O)COC(=O)c1ccc2c(c1)S(=O)(=O)c1ccccc1C2=O
2: COc1ccc(CCNC(=O)c2cc(-c3ccccc3)c(N3CCOCC3)s2)c(OC)c1OC
3: Cc1nc(SCC(=O)Nc2cc(C)on2)c2c3c(sc2n1)CCCC3
4: Cc1cc(C)cc(-n2ncc3c2CCCC3NC(=O)c2ccccc2)c1 (centres undefined)
5: COc1cc(C2CC(=O)Oc3cc4c(cc32)OCO4)cc(OC)c1OC (centres undefined)
6: Cc1cc(C(F)(F)F)cc(NNC(=O)NC(=O)c2ccc(Cl)cc2)n1
7: COc1ccccc1C1=NOC(C)(c2nnc(-c3cccc(Cl)c3)o2)C1 (centres undefined)
8: CCOC(=O)N1CCN(S(=O)(=O)c2cc([N+](=O)[O-])ccc2C)CC1

compound no.	1	2	3	4	5	6	7	8
Rce1 inh	i	i	i	·	·	i	i	i
Env fusion inh	-7	25	·	10	20	-6	1	-4
PABP FP inh	0	3	-9	·	·	-6	·	0
MT1-MMP act inh	-1	-2	2	-9	1	0	2	0
MT1-MMP act inh RFP	3	-4	2	-17	1	11	-2	1
Yeast UUG start	-8	10	2	-27	-33	-6	-7	3
CSC inhib	3	6	-5	·	·	-14	11	-7
eIF4H inh	-13	-12	2	·	·	-10	·	-11

9: CNC(=O)C1CCCN1S(=O)(=O)c1ccc(OC)cc1 (centres undefined)
10: COc1ccc(CNC(=O)C(OC(=O)c2ccco2)c2ccc(OC)cc2)cc1 (centres undefined)
11: CC(Sc1nnc(-c2ccco2)n1C)C(=O)N(C)C1CCCCC1 (centres undefined)
12: Clc1c(-c2nnc3n2CCC3)sc2ccccc12
13: Cc1ccc(C(=O)C2CCN(CC(=O)Nc3ccc4c(c3)OCCO4)CC2)cc1
14: CCCCc1nnc(SCC(=O)Nc2nccs2)n1CC
15: COc1cc(-c2cc(NC=O)c3ncc(-c4cccc(C(F)(F)F)c4)n3c2)cc(OC)c1OC
16: N[C@@]12CCc3nonc3[C@]1(O)CC(c1ccccc1)=[N+]2[O-]

compound no.	9	10	11	12	13	14	15	16
Rce1 inh	i	i	i	i	i	i	·	i
Env fusion inh	·	-2	-37	·	22	21	28	·
PABP FP inh	-4	-2	·	11	1	4	·	-8
MT1-MMP act inh	-1	4	0	5	-8	-2	-3	2
MT1-MMP act inh RFP	6	-2	2	-2	-9	-1	-4	8
Yeast UUG start	-7	-14	·	-32	-22	-14	-11	-12
CSC inhib	0	-5	-10	-10	-17	-13	·	-11
eIF4H inh	-12	3	·	-8	-8	-3	·	6

17: COc1ccc([C@H]2/C=C\CN(C(=O)CC(C)(C)C)[C@@H](C)C(=O)N2Cc2ccc(F)cc2)cc1
18: CCOC(=O)/C(C#N)=C(C)/C=C1\Sc2ccccc2N1CC
19: Cc1nc2ccccc2n1Cc1ccccc1Br
20: CNC(=O)COC(=O)CCC(=O)c1cccs1
21: CC1(C)C(=O)N(OCc2ccccc2)C(C)(C)C(=O)N1OCc1ccccc1
22: COCC(=O)Nc1ccc(S(=O)(=O)Nc2ccccn2)cc1
23: COc1ccccc1Oc1cn[nH]c1-c1ccc(OCC(=O)NN)cc1O
24: COc1ccc(-c2sc3ccccc3c2C#CCO)cc1

compound no.	17	18	19	20	21	22	23	24
Rce1 inh	i	i	i	i	i	i	i	i
Env fusion inh	48	·	8	14	·	-17	-7	-29
PABP FP inh	·	-10	-2	-23	1	-2	-11	-10
MT1-MMP act inh	-8	-198	0	-7	5	-2	3	-2
MT1-MMP act inh RFP	-13	-3	-26	2	-3	0	8	-24
Yeast UUG start	-13	-7	-20	·	12	-19	-18	-6
CSC inhib	-7	20	-7	7	2	-15	·	68
eIF4H inh	·	?	-8	-3	-3	2	3	-4

25: O=C(CSc1nnc(C2CC2)n1Cc1ccccc1)N1CCN(S(=O)(=O)c2ccccc2)CC1
26: Cc1cc(C(F)(F)F)c(C#N)c(=O)[nH]1
27: C1CN(c2nc3nonc3nc2N2CCSCC2)CCO1
28: COc1ccc2c(c1)C(NC(C)=O)C(=O)N2CCc1ccccc1 (centres undefined)
29: COC(=O)c1c(NC(=S)Nc2ccc(CC(=O)O)cc2)sc(C)c1C
30: Cc1c(Cl)cccc1N1C(=O)C(N2C(=O)c3cccc([N+](=O)[O-])c3C2=O)C1c1cccs1 (centres undefined)
31: COc1ccc(CNC(C)(C)C)cc1Cl
32: CCCCOC(=O)Nc1ccccc1C(=O)OC

compound no.	25	26	27	28	29	30	31	32
Rce1 inh	i	·	i	i	i	i	i	i
Env fusion inh	-16	·	7	0	9	·	·	·
PABP FP inh	6	2	7	8	8	3	1	-15
MT1-MMP act inh	-10	4	-3	-1	3	1	1	7
MT1-MMP act inh RFP	-3	5	-4	0	4	-5	1	6
Yeast UUG start	-2	-7	-22	·	-18	-9	-16	-11
CSC inhib	-23	·	-16	-3	-12	7	7	4
eIF4H inh	-4	12	6	-8	21	-6	1	4

Record cards, as listed above.
Cc1c(Cl)cccc1N1C(=O)C(N2C(=O)c3cccc([N+](=O)[O-])c3C2=O)C1c1cccs1 (centres undefined) as listed: Rce1 inh: i; Env fusion inh: ·; PABP FP inh: 3; MT1-MMP act inh: 1; MT1-MMP act inh RFP: -5; Yeast UUG start: -9; CSC inhib: 7; eIF4H inh: -6
COc1ccc(CNC(C)(C)C)cc1Cl as listed: Rce1 inh: i; Env fusion inh: ·; PABP FP inh: 1; MT1-MMP act inh: 1; MT1-MMP act inh RFP: 1; Yeast UUG start: -16; CSC inhib: 7; eIF4H inh: 1

Reformatted as tab-separated lines: entries from further up.
entry	SMILES	Rce1 inh	Env fusion inh	PABP FP inh	MT1-MMP act inh	MT1-MMP act inh RFP	Yeast UUG start	CSC inhib	eIF4H inh
22	COCC(=O)Nc1ccc(S(=O)(=O)Nc2ccccn2)cc1	i	-17	-2	-2	0	-19	-15	2
23	COc1ccccc1Oc1cn[nH]c1-c1ccc(OCC(=O)NN)cc1O	i	-7	-11	3	8	-18	·	3
24	COc1ccc(-c2sc3ccccc3c2C#CCO)cc1	i	-29	-10	-2	-24	-6	68	-4
25	O=C(CSc1nnc(C2CC2)n1Cc1ccccc1)N1CCN(S(=O)(=O)c2ccccc2)CC1	i	-16	6	-10	-3	-2	-23	-4
26	Cc1cc(C(F)(F)F)c(C#N)c(=O)[nH]1	·	·	2	4	5	-7	·	12
27	C1CN(c2nc3nonc3nc2N2CCSCC2)CCO1	i	7	7	-3	-4	-22	-16	6
28	COc1ccc2c(c1)C(NC(C)=O)C(=O)N2CCc1ccccc1 (centres undefined)	i	0	8	-1	0	·	-3	-8
29	COC(=O)c1c(NC(=S)Nc2ccc(CC(=O)O)cc2)sc(C)c1C	i	9	8	3	4	-18	-12	21
30	Cc1c(Cl)cccc1N1C(=O)C(N2C(=O)c3cccc([N+](=O)[O-])c3C2=O)C1c1cccs1 (centres undefined)	i	·	3	1	-5	-9	7	-6
31	COc1ccc(CNC(C)(C)C)cc1Cl	i	·	1	1	1	-16	7	1

Next section:
33: COc1ccc(C(=O)OCC(=O)NC2CCCC2)cc1OC
34: O/N=C(\c1ccc(Cl)cc1Cl)c1ncc(C(F)(F)F)cc1Cl
35: CC1(C)OC(=O)C2(Cc3ccccc3N3CCCCC32)C(=O)O1 (centres undefined)
36: Nc1ncnc2c1ncn2[C@@H]1O[C@H](COS(=O)(=O)O)[C@@H](O)[C@H]1O
37: COc1ccc(CN(C)CCCn2cnc3c(OCc4ccccc4)ncnc32)cc1OC
38: C/C=C(/C)C(=O)O[C@@H]([C@H](O)c1cc2ccc(=O)oc2cc1OC)C(C)(C)O[C@@H]1O[C@H](CO)[C@@H](O)[C@H](O)[C@H]1O
39: O=C(Cn1cc(C(=O)c2ccco2)c2ccccc21)Nc1ccccc1
40: Cc1nnc2ccc(N3CCN(c4ccccn4)CC3)nn12

compound no.	33	34	35	36	37	38	39	40
Rce1 inh	i	i	·	·	·	·	i	i
Env fusion inh	0	·	-37	8	21	-10	·	-24
PABP FP inh	10	-3	9	·	·	·	0	0
MT1-MMP act inh	0	-2	1	-3	-2	-1	3	4
MT1-MMP act inh RFP	3	-7	4	-2	-6	4	-2	7
Yeast UUG start	-6	-6	-12	-17	-21	3	-14	-12
CSC inhib	-17	?	-7	-14	·	-11	12	1
eIF4H inh	3	-2	-2	·	·	·	-16	6

41: CCOC(=O)N1CCN(C(=O)c2ccc3c(=O)n(-c4ccc(OC)cc4OC)c(=S)[nH]c3c2)CC1
42: COc1ccc(CC(NC(C)=O)C(=O)NC2CCN(C(=O)C3CC3)CC2)cc1OC (centres undefined)
43: Cc1oc(/N=C/c2ccc(O)cc2O)c(C#N)c1C
44: COC(=O)c1cc(COc2ccc3ccc(=O)oc3c2)c(C)o1
45: CCOCCCNC(=O)CSc1nc2nc(C)c(Cc3ccccc3)c(C)n2n1
46: CN(C)CCN1C(=O)C(=O)/C(=C(/O)c2ccc(S(=O)(=O)N3CCOCC3)cc2)C1c1ccc(Br)cc1 (centres undefined)
47: CC(C)NC(=O)NNC(=O)c1cc(COc2cc(Cl)cc(Cl)c2)on1
48: Clc1ccc(C=Cc2ccccn2)c(Cl)c1

compound no.	41	42	43	44	45	46	47	48
Rce1 inh	i	i	i	i	i	i	i	·
Env fusion inh	·	3	-6	-56	2	5	-9	-83
PABP FP inh	6	9	-7	-5	-4	0	2	·
MT1-MMP act inh	-5	-4	3	-4	0	-2	0	-4
MT1-MMP act inh RFP	-7	4	19	4	1	0	4	-2
Yeast UUG start	-1	·	·	-24	3	-7	·	-11
CSC inhib	-5	-6	3	-7	8	-9	-1	·
eIF4H inh	2	-5	?	-6	-2	-4	4	·

49: Cc1ccc(NS(=O)(=O)c2c(C)nc3sccn3c2=O)cc1
50: Clc1cccc(Cl)c1CNc1ccc(N2CCCC2)cc1
51: COc1ccc(/C=N/N=C2/NC(=O)C(CC(=O)O)S2)cc1OCc1ccc(Cl)cc1Cl (centres undefined)
52: O=C(O)C1CCCCC1C(=O)NCc1ccc2c(c1)OCO2 (centres undefined)
53: Cc1ccc(NC(=O)CCS(=O)(=O)c2cccc3nonc23)cc1Cl
54: O=[N+]([O-])c1ccc(Cl)c(CN2CCCCCC2)c1
55: COc1ccc(N/C=C\C(=O)c2ccc3c(c2)OCO3)cc1OC
56: CCN(c1cc(C)cc(C)c1)S(=O)(=O)c1nnc(NC(=O)c2ccco2)s1

compound no.	49	50	51	52	53	54	55	56
Rce1 inh	i	i	i	i	i	i	i	i
Env fusion inh	19	14	-6	2	-8	-10	10	8
PABP FP inh	6	9	·	2	1	-4	2	·
MT1-MMP act inh	2	·	1	-3	0	4	4	3
MT1-MMP act inh RFP	-2	·	2	-3	0	0	13	-3
Yeast UUG start	-15	·	-5	·	1	-6	-39	-1
CSC inhib	-11	7	11	-12	·	9	-1	27
eIF4H inh	11	1	·	-6	9	3	-11	·
